Six1-Eya2 inh = inhibitors of human Six1/Eya2 interaction; AlphaScreen GST-Six1/His-Eya2 binding, biochemical; active compounds read low; control for the full effect not named in the record; activity change, % (no concentration beside the values); 360,000 compounds, 0.56% hits; in the data active = activity change below about -65%; inconclusive = about -30% to -65%; inactive = above about -30%; also: % is scaled to controls: 0 for no effect and ±100 for the full control effect
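GST-Six1 + His-Eya2 (5X stock: 250/500 nM); Tris pH 8.0, 300 mM NaCl, 0.05% BSA, 0.02% Tween 20; GSH donor/Ni acceptor beads; 1 h 37 °C dark; AlphaScreen readout.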
PINK1 expr mod = PINK1 expression modulation. PINK1 immunofluorescence, high-content cytometry, 24 h. Potency, µM (titrated, usually from 76.6 µM), for inactives: top-dose activation (PINK1 increase), usual class: activators. 410,000 compounds, 0.2% hits. AID 624263; active = well fitted activation curve with a large enough effect; inconclusive = small, poorly fitted or top-dose-only effect; inactive = flat fitted curve, though single readings scatter; cell line not stated here;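 also: potency is read from the fitted curve at half-maximal effect; % of control where 0% means no effect; nearly all actives have a fitted effect of over 65% in size; a mitochondrial uncoupler was the plate control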
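Compound titrations (5 concentrations, 24 h) on a stable cell line; DMSO and CCCP controls. Endpoint: fixed-cell PINK1 immunofluorescence with mitochondrial, cell and nuclear markers, scanned by microplate cytometer.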
TRPML1 blocker = blocks the human TRPML1 channel. Q9GZU1. TRPML1-inducible cells, Ca2+ dye fluorescence, FDSS; active compounds read low; inhibition of EC80 agonist-evoked calcium signal. activity change, negative = inhibition, % (concentration not given with the values). 390,000 compounds, 0.02% hits. AID 624415; in the data active means activity change below about -50%; inconclusive means about -30% to -50%; inactive means above about -30%;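 also: stimulus is agonist 54-4 at its EC80 concentration; % is scaled to controls: 0 for no effect and ±100 for the full control effect; the text of the record puts the active cut at -80%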
Target sequence (Q9GZU1 whole entry, looked up): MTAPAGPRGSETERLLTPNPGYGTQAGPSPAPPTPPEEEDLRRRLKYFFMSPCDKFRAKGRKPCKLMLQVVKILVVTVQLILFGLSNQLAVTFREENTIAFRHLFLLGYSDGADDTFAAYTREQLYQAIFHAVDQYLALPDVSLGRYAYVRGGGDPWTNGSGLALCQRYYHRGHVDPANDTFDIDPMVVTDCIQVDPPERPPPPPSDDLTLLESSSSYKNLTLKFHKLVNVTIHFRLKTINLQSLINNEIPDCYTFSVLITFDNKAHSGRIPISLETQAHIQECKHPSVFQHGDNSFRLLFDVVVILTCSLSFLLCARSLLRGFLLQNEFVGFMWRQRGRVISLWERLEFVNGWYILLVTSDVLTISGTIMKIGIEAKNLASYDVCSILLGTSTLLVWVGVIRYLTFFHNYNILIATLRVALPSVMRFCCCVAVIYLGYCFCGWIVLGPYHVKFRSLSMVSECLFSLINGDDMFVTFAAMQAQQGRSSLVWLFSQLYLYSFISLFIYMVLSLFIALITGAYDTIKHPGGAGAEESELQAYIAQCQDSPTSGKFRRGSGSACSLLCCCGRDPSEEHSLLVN
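Calcium fluorescence in TRPML1-DL cells induced overnight with Tet: a 110 s read after compound pin addition, then a 110 s antagonist read after challenge with 54-4 at 4 uM final (EC80).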
TRPML1 agonist = activates the human TRPML1 channel; Q9GZU1; TRPML1-expressing cells, Ca2+ dye fluorescence, FDSS; host cell line not named in the record; reference of the full effect not given here; activation, % (test concentration not listed); 410,000 compounds, 0.12% hits; AID 624414; in the data active = activation above about 50%; inconclusive = about 30% to 50%; inactive = below about 30%; also: 0% is about no effect; the text of the record puts the active cut at 80%
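Agonist activity was taken from a 110 s kinetic Ca2+ dye read on the FDSS after pinning compounds onto TRPML1-DL cells. The cells were seeded at 1,500/well with Tet inducer, incubated about 16 h, then dye-loaded at room temperature.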
CtBP-E1A inh = inhibitors of CtBP/E1A interaction. 340,000 compounds, 0.49% hits. activity change, % (test concentration not listed). AlphaScreen GST-E1A/His-CtBP binding, 1536-well; active compounds read low; control for the full effect not named in the record; in the data active means activity change below about -65%; inconclusive means about -30% to -65%; inactive means above about -30%; also: % is scaled to controls: 0 for no effect and ±100 for the full control effect
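In 5 uL wells, 23 nL compound meets equimolar GST-E1A and His-CtBP (5X stock 125 nM each) for 2 h, 37 °C. Beads (5X, 50 ug/mL) then 1 h, 37 °C, dark.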
D2 agonist = agonists of human D2 dopamine receptor (beta-arrestin); P14416; DiscoveRx PathHunter D2 beta-arrestin, luminescence, 90 min; 100% = 57 uM dopamine signal; activation, % (concentration not given with the values); 360,000 compounds, 0.084% hits; AID 624465; in the data active = activation above about 40%; inconclusive = about 15% to 40%; inactive = below about 15%; also: the text of the record calls up to 30% inactive
Target sequence (P14416 whole entry, looked up): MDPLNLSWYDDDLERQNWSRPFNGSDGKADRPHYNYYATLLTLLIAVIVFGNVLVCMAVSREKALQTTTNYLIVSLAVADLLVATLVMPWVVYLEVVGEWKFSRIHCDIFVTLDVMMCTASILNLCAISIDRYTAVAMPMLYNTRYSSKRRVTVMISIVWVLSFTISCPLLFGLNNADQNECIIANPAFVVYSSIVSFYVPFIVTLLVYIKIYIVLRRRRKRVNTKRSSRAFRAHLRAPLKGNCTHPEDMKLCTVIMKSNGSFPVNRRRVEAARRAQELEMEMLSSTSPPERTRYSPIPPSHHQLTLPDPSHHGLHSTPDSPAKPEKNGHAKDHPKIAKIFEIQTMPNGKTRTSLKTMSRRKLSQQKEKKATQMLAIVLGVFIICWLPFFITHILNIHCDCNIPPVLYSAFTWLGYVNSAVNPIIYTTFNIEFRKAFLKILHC
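DiscoveRx PathHunter D2 beta-arrestin cells (2,100/well) attached overnight, then compound-stimulated 90 min at 37 C in HBSS/10 mM HEPES/0.1% Tween-20 buffer; beta-galactosidase complementation read by luminescence after 1 h at ambient temperature. Dopamine 57 uM final (EC100) as control.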
Active calls of the source: *; ? = inconclusive; / = no result given; [ ] = dose if it differs, or a comment. Compounds as they come (roughly 1% active in at least one column).

SMILES	Six1-Eya2 inh	PINK1 expr mod	TRPML1 blocker	TRPML1 agonist	CtBP-E1A inh	D2 agonist
COc1ccc2[nH]c(O)c(N=NC(=N)N)c2c1	?	-1.5%	-9.2	0.8	?	-1.7
CCc1c(C)sc(NC(=O)c2ccc(Br)o2)c1C(=O)OC	40.3	2.4%	7.0	0.8	26.7	-3.3
COc1ccc(C(=O)N2CCC(C)(C(=O)NS(=O)(=O)C3CC3)C2)cc1F (stereo not drawn)	3.0	1.5%	/	-0.4	1.7	-2.6
Cc1ccc(S(=O)(=O)Nc2c(C)n(C)n(-c3ccccc3)c2=O)cc1C(=O)NCc1ccco1	1.9	-0.8%	-2.1	1.4	-6.9	-6.4
CC(C)c1ccc(CNCc2ccccc2)cc1	16.6	14.1%[38.3 µM]	16.8	0.1	7.2	-2.3
Cc1ccc(NC(=O)CN(C)S(=O)(=O)c2cccs2)c(Br)c1	24.2	-0.4%	-1.8	0.5	7.8	5.6
COCCCNC(=S)N(Cc1ccccc1)Cc1nc2ccccc2c(=O)[nH]1	2.4	-2.3%	8.4	-1.4	7.8	1.1
Cn1c(-c2ccccc2O)cc2ccccc21	-1.3	1.1%	-15.0	0.5	5.1	6.3
CCCN(Cc1cccs1)C(=O)Nc1ccccc1C	/	0.7%	-11.6	0.9	/	/
COC(=O)c1sccc1NC(=O)C1CC(C)=C(C)CC1C(=O)O (stereo not drawn)	3.0	-1.9%	-14.9	-0.8	-2.0	-0.2
O=C(CN1C(=O)c2ccccc2S1(=O)=O)NCc1cccnc1	-1.0	5.9%[38.3 µM]	-5.1	0.3	-6.2	-0.8
Cc1c(Cl)cccc1NC(=O)Cc1cccs1	1.2	0.6%	-12.1	0.4	6.2	1.5
CCOC(=O)N1CCN(C(=O)CCc2c(C)nc3nc(C)nn3c2C)CC1	3.1	2.1%[38.3 µM]	11.0	0.8	-5.9	1.5
CCC1CCCCN1C(=O)CSc1nnc(-c2ccc(Cl)cc2)o1 (stereo not drawn)	1.5	2.8%	16.3	0.0	0.9	4.4
COc1cc2c3c(c1OC)C1(C=CC(=O)C=C1)CC3N(C(=O)CCC(=O)O)CC2 (stereo not drawn)	-7.1	1.7%	9.6	0.8	-2.2	-1.0
CC1CCN(C(=O)Cn2c3ccccc3c3nc4n(c(=O)c32)CCCS4)CC1	-0.3	1.0%	-1.0	-1.2	6.9	-1.4
CS(=O)(=O)c1ccc(C(=O)N2CC(=O)Nc3ccccc32)cc1	-1.1	2.2%	-4.1	-0.1	-1.2	-5.2
Cc1csc(NC(=O)CSc2nc3[nH]ncc3c(=O)[nH]2)n1	-0.9	-1.7%	9.3	0.3	/	-0.3
Cc1ccc(C)c(NS(=O)(=O)c2cc(C(=O)N3CCCC3)ccc2Cl)c1	-9.2	2.1%	7.5	1.3	/	3.5
O=C(NC1CCCCC1)c1ccc(CNc2c(N3CCOCC3)c(=O)c2=O)cc1	4.5	1.7%	-10.9	-0.2	-27.2	-1.1
Cc1cccc(NC(=O)CCCN2C(=S)NC(C)(C)CC2C)c1C (stereo not drawn)	0.0	1.3%	-0.3	0.5	1.8	2.3
Cc1c(C)c(C)c(C(=O)CCc2cccc(NC(=O)CCC(=O)O)c2)c(C)c1C	2.4	-0.8%	-9.9	4.1	/	-2.3
CC1CCC2(CC1)NC(=O)N(CC(=O)NCc1ccc(Cl)cc1)C2=O (stereo not drawn)	0.1	2.3%	-24.0	-1.0	13.3	-0.7
Cc1ccc(NC(=S)NC2CCN(Cc3ccccc3)CC2)cc1	-0.7	0.2%	36.0	2.4	-2.8	-1.5
COc1cc(C(=O)OCC#N)ccc1OCc1c(C)noc1C	0.0	8.5%	-7.6	-0.5	-16.0	0.6
Cc1ccc(C)c(S(=O)(=O)Nc2ccccc2C(=O)Nc2cc(C)on2)c1	-9.7	-0.5%[38.3 µM]	-1.2	-0.8	-23.0	3.3
Cc1cc(C)cc(-n2c(SCC(=O)N3CCC(C)CC3)nc3c([nH]c4ccccc43)c2=O)c1	/	-3.8%	-15.2	1.4	/	/
COc1ccc(C(=O)Nc2cc(C)nc3ccccc23)cc1OC	-6.3	6.0%	-6.6	0.6	-19.9	-3.6
Cc1ccc(NC(=O)Cn2c(=O)n(-c3ccccc3)c(=O)c3ccc(C(=O)NCc4ccc5c(c4)OCO5)cc32)cc1	/	-2.6%	50.9	1.1	/	/
O=C(Nc1cccc(C(F)(F)F)c1)c1ccc(-c2ccc(F)c(F)c2)c2ccoc12	2.6	?	-0.2	0.5	2.6	-3.4
Cc1nn(C)cc1/C=N/O	0.5	-1.6%[38.3 µM]	-20.4	0.6	4.4	-2.9
CC(C)(C)c1ccc(S(=O)(=O)Nc2ccccn2)cc1	-4.9	2.4%	-3.6	0.9	2.4	-0.8
COc1cccc(-n2c(-c3cccc(S(=O)(=O)N(C)C)c3)n[nH]c2=S)c1	-1.2	-1.2%	2.1	-0.1	9.4	-3.3
CCOC(=O)c1ccc(CN(Cc2ccc(Br)cc2)S(=O)(=O)c2cccc(C(F)(F)F)c2)cc1	/	-0.1%	28.9	1.8	/	/
O=C(NNC(=S)NC(=O)c1ccccc1)c1cccc([N+](=O)[O-])c1	-9.3	0.5%	-7.5	6.0	8.8	-8.0
Cc1noc(C)c1COc1ccccc1C(=O)N1CCN(S(=O)(=O)c2ccccc2Br)CC1	-4.9	-1.1%	-16.3	-0.7	/	1.1
CC(C)CN(C(=O)c1cccs1)C1CCS(=O)(=O)C1 (stereo not drawn)	-2.3	0.1%	-5.0	-0.6	8.3	2.9
Cc1ccc(C(=O)Nc2nc3ccc(Cl)cc3s2)o1	2.9	6.5%	6.2	0.2	0.7	-1.0
O=C(NCc1cccs1)c1csc([C@H]2C[C@H](O)[C@@H](CO)O2)n1	0.9	1.6%	/	-0.2	12.6	-5.7
CCOc1ccc(/C=N/OCC(=O)Nc2cc(S(=O)(=O)N3CCOCC3)ccc2OC)cc1	-7.4	1.1%	-4.8	1.1	-4.2	-2.1
COc1ccc(C(=O)C(c2ccccc2)N2CCOCC2)cc1 (stereo not drawn)	2.8	1.2%	-20.1	-1.2	1.9	-4.5
CCc1ccc(S(=O)(=O)NCc2csc(-c3cccnc3)n2)s1	3.1	-1.0%	0.2	0.3	-15.5	-1.7
CCCNC(=O)CS(=O)(=O)Cc1nc(-c2ccccc2C)oc1C	2.9	-0.4%	-8.8	-0.7	6.7	-2.8
CCN(Cc1ccncc1)C(=S)NCc1ccccc1	6.6	-0.5%	14.4	-0.7	0.0	0.4
O=C1CCC(=O)N1OCCOc1ccccc1	2.9	-0.9%	-10.6	-0.1	0.0	-1.7
O=C(O)C1CC(=O)N(Cc2ccccc2)C1 (stereo not drawn)	4.0	0.6%	-9.1	0.4	9.1	0.5
N#Cc1sc2nc3c(c(-c4cccnc4)c2c1N)CCC3	-0.8	-5.2%[38.3 µM]	2.7	-0.6	11.0	2.2
CCNc1nc(NCC)nc(OCCOC(C)=O)n1	8.1	1.2%	-6.4	0.0	5.0	-0.7
COc1ccc(OC)c(S(=O)(=O)NCCc2cn3ccsc3n2)c1	0.3	1.2%	16.1	0.0	-5.1	-0.6
COc1ccc(NC(=O)c2cccc(N3C(=O)c4ccc(C(=O)Nc5ccc(OC)c(O)c5)cc4C3=O)c2)cc1O	?	0.5%	0.8	-0.1	-65.8*	5.2
(continued)
SMILES	Six1-Eya2 inh	PINK1 expr mod	TRPML1 blocker	TRPML1 agonist	CtBP-E1A inh	D2 agonist
Cc1sc2nc(CN3CCCCC3)nc(Cl)c2c1C	-8.0	-2.1%	5.4	0.4	-2.4	-3.4
O=C(CC1N=C2c3ccccc3N=C(SCc3cccc(F)c3)N2C1=O)NCc1cccs1 (stereo not drawn)	/	-0.1%	33.8	0.5	/	/
COc1cc(C(O)c2nc(-c3cccc(C(=O)O)c3)cs2)ccc1F (stereo not drawn)	0.3	4.1%	/	-0.3	0.9	-0.9
COc1cccc(/C=N/NC(=O)c2nc(-c3ccccc3)cc(-c3ccccc3)n2)c1O	-2.5	0.4%	3.0	-0.7	-5.6	-1.7
Cc1ccccc1CC1(CO)CCCN(Cc2ccc3c(c2)OCCO3)C1 (stereo not drawn)	-2.2	2.1%	-15.7	0.6	/	-2.9
CC(C)(C)C(=O)Cn1c(=O)n(-c2ccccc2)c(=O)c2c3c(sc21)CCC3	/	5.3%	-11.7	1.4	/	/
COC(=O)c1ccc(NC(=O)CCn2cccc2)cc1	-0.1	-1.8%	-24.6	-1.2	0.3	-2.8
COc1ccc(CN(C)C(=O)Cc2ccsc2)c(OC)c1OC	8.1	3.2%	-9.8	-0.5	-3.9	0.7
Cc1ccc(CNC(=O)c2c(Nc3ccccc3C)sc(C(=O)c3ccc(F)cc3)c2N)cc1	/	?	10.6	7.6	/	/
Fc1cccc(CN2CCN(Cc3nc(CCc4ccccc4)no3)CC2)c1	-1.0	-1.6%	20.9	1.3	/	-0.3

In the list so far, 13 have an aryl methoxy group.
SMILES	Six1-Eya2 inh	PINK1 expr mod	TRPML1 blocker	TRPML1 agonist	CtBP-E1A inh	D2 agonist
COc1ccc2[nH]c(O)c(N=NC(=N)N)c2c1	?	-1.5%	-9.2	0.8	?	-1.7
COc1ccc(C(=O)N2CCC(C)(C(=O)NS(=O)(=O)C3CC3)C2)cc1F (stereo not drawn)	3.0	1.5%	/	-0.4	1.7	-2.6
COc1cc2c3c(c1OC)C1(C=CC(=O)C=C1)CC3N(C(=O)CCC(=O)O)CC2 (stereo not drawn)	-7.1	1.7%	9.6	0.8	-2.2	-1.0
COc1cc(C(=O)OCC#N)ccc1OCc1c(C)noc1C	0.0	8.5%	-7.6	-0.5	-16.0	0.6
COc1ccc(C(=O)Nc2cc(C)nc3ccccc23)cc1OC	-6.3	6.0%	-6.6	0.6	-19.9	-3.6
COc1cccc(-n2c(-c3cccc(S(=O)(=O)N(C)C)c3)n[nH]c2=S)c1	-1.2	-1.2%	2.1	-0.1	9.4	-3.3
CCOc1ccc(/C=N/OCC(=O)Nc2cc(S(=O)(=O)N3CCOCC3)ccc2OC)cc1	-7.4	1.1%	-4.8	1.1	-4.2	-2.1
COc1ccc(C(=O)C(c2ccccc2)N2CCOCC2)cc1 (stereo not drawn)	2.8	1.2%	-20.1	-1.2	1.9	-4.5
COc1ccc(OC)c(S(=O)(=O)NCCc2cn3ccsc3n2)c1	0.3	1.2%	16.1	0.0	-5.1	-0.6
COc1ccc(NC(=O)c2cccc(N3C(=O)c4ccc(C(=O)Nc5ccc(OC)c(O)c5)cc4C3=O)c2)cc1O	?	0.5%	0.8	-0.1	-65.8*	5.2
COc1cc(C(O)c2nc(-c3cccc(C(=O)O)c3)cs2)ccc1F (stereo not drawn)	0.3	4.1%	/	-0.3	0.9	-0.9
COc1cccc(/C=N/NC(=O)c2nc(-c3ccccc3)cc(-c3ccccc3)n2)c1O	-2.5	0.4%	3.0	-0.7	-5.6	-1.7
COc1ccc(CN(C)C(=O)Cc2ccsc2)c(OC)c1OC	8.1	3.2%	-9.8	-0.5	-3.9	0.7
